Sa ugtP lethal = growth inhibition of ugtP-null S. aureus, primary screen, RN4220 ugtP deletion, OD600 | 16 h; some inactives read as strong as hits | growth inhibition, % (test concentration not listed) | 0.54% of 330,000 active | AID 1259309, 2017;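 active = z-score under -3 and OD600 up to 0.15 on both plates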;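 note: plate controls were untreated wells for no effect and antibiotic for full effect; wells of about 80 µL received 100 nL stock; the first replicate is given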
BJeLR lethal = MLPCN primary cell-based screen for lethality selective to Ras in HRASV12 cells | BJeLR (HRASV12) viability, CellTiter-Glo ATP luminescence, 48 h; reference of the scale not given here | 0.17% of 300,000 active | inhibition, % (no concentration beside the values);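 active = replicate mean above 50%; inconclusive = above 50% but judged a plate artefact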;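 note: 50 nL library stock added to about 25 µL; numbers are from one replicate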
PrP UTR inh = inhibition of PrP 5' UTR reporter expression | inhibition, % (no concentration beside the values) | cell-based PrP 5' UTR mRNA reporter, plate reader | 0.35% of 340,000 active;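 active = every replicate at 50% or more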;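 note: 0 = median of the neutral control wells; tested in H4 reporter cells; numbers are from one replicate; inactives centre near -14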
Mtb hypoxia inh = PubChem AID 1159583 | M. tuberculosis hypoxia-regulated fluorescent reporter, fluorescence | fluorescence inhibition, % (test concentration not listed) | 0.1% of 300,000 active;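 active = 35 to 45% if threefold the growth effect, above 45% if 1.5-fold the growth effect; inactive = the rest, general growth blockers included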;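 note: wells of about 50 µL received 100 nL stock; 0% = vehicle wells and 100% = reference inhibitor wells; whole bacteria with a GFP reporter of the hypoxia response; strong numbers were not always called active; many hits fall short of the cut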
Sa RN4220 lethal = growth inhibition of S. aureus RN4220, primary screen, OD600; inhibition, % (no concentration beside the values); 0.33% of 330,000 active; 16 h;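 active = z-score of -3 or lower and OD600 up to 0.18 on both plates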;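 note: plate controls were untreated cells for no effect and reference antibiotic for full effect; stock transfer was 100 nL into about 80 µL; one replicate is shown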
Autofluor counter = flagged as autofluorescent in microsphere protease counterscreen; compound autofluorescence counterscreen, microsphere flow cytometry; active compounds read high; fluorescence intensity (concentration not given with the values); 3.1% of 360,000 active; AID 624483;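 active = at least 3 SD above the mean of all compounds, about 16000 in these data; inconclusive = too few beads counted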;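 note: 100 nL of 1 mM stock went into each well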
Mtb hypoxia inh growth = also measured in Mtb hypoxia inh; calls as there; growth inhibition, %; measured here: M. tuberculosis growth (absorbance);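 0% = vehicle and 100% = reference antibiotic; read after six days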
The depositor's hits bear a star; u = inconclusive; x = not tested or not shown.

Order of results – Sa ugtP lethal, BJeLR lethal, PrP UTR inh, Mtb hypoxia inh, Mtb hypoxia inh growth, Sa RN4220 lethal, Autofluor counter
N#Cc1ccccc1S(=O)(=O)N1CCN(C(=O)Cc2coc3cc(O)ccc23)CC1
 : -4, x, -5, 5, -4, -0.2, x
CC1(c2ccccc2)NC(=O)N(CC(=O)Nc2ccc([N+](=O)[O-])cc2)C1=O (configuration not stated)
 : -2, -12, 3, 0, 17, -4.0, 4675
CCN(Cc1cnn(C)c1)C(=O)c1cc(COc2ccc3c(c2)CCCC3)on1
 : -2, -3, -43, 4, 0, 3.7, u
Nc1c(Cl)ncnc1N/N=C/c1cccnc1
 : x, 6, -29, x, x, x, 3345
CN(CC(=O)O)Cc1nc2ccccc2[nH]1
 : -2, -4, 8, 1, 3, 1.2, 12106
CCCCn1c(CCC(=O)O)ccc1-c1cccs1
 : -11, -7, -17, x, x, 11, 4864
O=C(C1CC1)N1CCc2cc(Br)cc(S(=O)(=O)NC3CCCCC3)c21
 : -4, -3, -17, 3, 6, -0.1, 4100
CN1CCC2(CC1)N=C(c1ccc(F)cc1)C(=S)N2C(=O)c1ccccc1
 : -3, 6, -22, 2, 11, 3.4, 2137
COc1ccc(NCC(=O)Nc2cccc(C(F)(F)F)c2)cc1S(=O)(=O)N1CCOCC1
 : -16, x, -21, -5, 12, -2.1, 3927
COc1ccc(C(=O)C2CCCN(Cc3cccn3-c3ccc(Cl)cn3)C2)c(OC)c1 (configuration not stated)
 : -16, 9, -7, 11, 14, -7.5, 2242
CCCN1CCN(CCCNC(=O)c2cc3c(s2)-c2c(C)cccc2OC3)CC1
 : 9, 7, -12, 12, 15, -0.7, 5348
CCOC(=O)c1cnc2c([N+](=O)[O-])cnn2c1C
 : 6, -4, 8, -5, 1, 6.9, 3222
C/C(=N\NC(N)=S)c1ccncc1
 : x, -9, -20, x, x, x, 4015
Cc1ccccc1-c1noc(C(C)NC(=O)c2ccco2)n1 (configuration not stated)
 : 0, -3, -16, 6, 13, 4.4, 3518
CCC1CCc2c(sc3nc(SCC(=O)NCc4ccco4)n(-c4ccccc4)c(=O)c23)C1 (configuration not stated)
 : -2, -9, -17, 6, 10, -17, 3308
CCOc1cccc(/C=N/NS(=O)(=O)c2ccc(C)c([N+](=O)[O-])c2)c1O
 : x, -5, -8, x, x, x, 4295
Cc1ccc(C(=O)NN=Cc2ccc(-c3ccc([N+](=O)[O-])cc3)o2)cn1
 : 7, x, x, 4, 0, 3.1, x
O=C(NCC(c1ccco1)N1CCCCC1)c1cccc(NS(=O)(=O)c2ccc(Br)cc2)c1 (configuration not stated)
 : 11, 4, -11, 12, 7, 7.6, 4948
O=C(NCc1ccncc1)C1CCC(=O)N(CCc2ccc(Cl)cc2)C1 (configuration not stated)
 : 6, 3, -11, 1, -4, 6.4, 5099
O=C(C1CCN(c2nnc(-n3cccc3)s2)CC1)N1CCN(Cc2ccc3c(c2)OCO3)CC1
 : 4, 6, -12, x, x, 3.6, 4577
O=S1(=O)CCN2C(c3ccco3)=CSC2=N1
 : 0, -3, -14, 0, 4, -3.6, 3075
COc1ccccc1CNC(=O)c1ccc(S(=O)(=O)N(C)c2ccccc2)cc1
 : -6, x, -25, 2, 0, 2.3, 5067
COc1ccc(CCNC(=O)CC2SC(=NCCc3ccccc3)NC2=O)cc1 (configuration not stated)
 : 0, -10, -2, -11, 10, 2.5, 2417
Cc1oc(-c2cccc(Cl)c2)nc1CN1CCCC(C(=O)NC(C)c2ccc3c(c2)OCCO3)C1 (configuration not stated)
 : 0, 5, -50, x, x, 4.2, 7690
CCN(CC)CCNC(=O)CCCCCn1c(=O)[nH]c2cc(C(=O)OC)ccc2c1=O
 : 3, -1, -13, -5, 4, -0.2, x
O=[N+]([O-])c1ccc(-c2cc(-c3ccc(Cl)cc3)n[nH]2)cc1
 : x, 4, -69, x, x, x, 4806
COCCCN=C1NN=C(c2cc(C)n(-c3ccccc3F)c2C)CS1
 : 1, 10, 21, 3, 6, 5.8, 1969
N#CCC(=O)NN=Cc1ccc(OCC(=O)Nc2ccc(F)cc2)cc1
 : 3, x, x, 6, 4, 2.0, x
COc1ccc(NC(=O)CCCn2c(=O)[nH]c3ccccc3c2=O)cc1
 : 2, -6, -17, 5, 9, 4.6, 3939
CCOC(=O)c1ccc(NC(=O)COc2cc3oc(=O)c(CC(C)O)c(C)c3cc2Cl)cc1 (configuration not stated)
 : 2, 1, 7, 0, -5, 2.7, 6047
O=C(CN1CCN(C(=O)c2ccco2)CC1)Nc1c2c(nc3c1CCC3)CCCC2
 : 3, x, -23, x, x, 5.4, 2693
O=C(Nc1cccc(S(=O)(=O)NC2=NCCCCC2)c1)c1cc(-c2ccncc2)nc2ccccc12
 : -5, 7, -2, -5, -4, 11, 4344
CN(CCc1ccccn1)C(=O)c1nn2c(C(F)(F)F)cc(-c3ccco3)nc2c1Cl
 : -6, -12, -7, x, x, 1.4, 5739
O=C(Nc1nccs1)c1ccc(COc2c(F)c(F)cc(F)c2F)o1
 : -10, x, -16, -1, -4, 7.2, 6442
Cc1ccc(C)c(OCc2nc3ccc(S(=O)(=O)Nc4c(C)n(C)n(-c5ccccc5)c4=O)cc3[nH]2)c1
 : 3, 5, -19, -6, -2, 6.0, 4145
COc1ccc(CCNC(=O)CCCn2nc(C)c([N+](=O)[O-])c2C)cc1OC
 : -6, 10, -29, -7, -7, 5.0, 5224
CCCCN1C(=O)C2C(C(=O)Nc3cccc(OC)c3)C3C=CC2(O3)C1C(=O)NC1CCCCC1C (configuration not stated)
 : 2, 0, -17, 8, -3, -1.2, x
NC(=O)SCC(=NS(=O)(=O)c1ccccc1)Nc1ccccc1
 : 1, x, x, 3, 4, 2.5, x
CCOC(=O)CCCCCN1C(=O)c2cccc3cccc(c23)C1=O
 : 7, 4, -30, 13, -1, 3.5, 4076
Cc1ccc(CN2CC(C(=O)N3CCN(c4ccccc4O)CC3)CC2=O)cc1 (configuration not stated)
 : 9, -6, -6, -6, -10, 4.6, u
C=CCn1c(SCC(=O)Nc2c(C)n(C)n(-c3ccccc3)c2=O)nc2sc(C)c(C)c2c1=O
 : 9, -25, -12, 8, 7, 5.5, 9962
Cc1ccc(/C=C/C(=O)O)cc1S(=O)(=O)N1CCCCC1
 : 0, -4, -7, -9, 0, 3.8, 3194
CCOCCCNCc1ccc(OC)c(OC)c1
 : 1, -10, 6, x, x, -0.9, 4604
O=C(c1ccc(=O)[nH]c1)N1CCN(S(=O)(=O)c2ccc(Cl)cc2)CC1
 : -1, 3, 4, -4, 1, 2.7, 6047
COC(=O)Oc1ccc(/C=N/NC(=O)CN(c2ccccc2Br)S(C)(=O)=O)cc1OC
 : x, 6, -14, x, x, x, 4186
CC(OC(=O)C1CC1)C(=O)Nc1cccc(S(=O)(=O)N2CCOCC2)c1 (configuration not stated)
 : -6, x, -8, 8, 9, -3.9, 2932
Cc1cc(CN2CCCC(C(=O)Nc3cccc(-n4cccn4)c3)C2)cc(C)c1O (configuration not stated)
 : 3, -5, -25, 1, -12, 0.7, 4778
O=C(CCNS(=O)(=O)c1ccc(Br)s1)N1CCN(c2ccccc2)CC1
 : 2, x, 7, x, x, -0.3, 3552
C=CCN1CC(c2nc3ccccc3n2Cc2cccc3ccccc23)CC1=O (configuration not stated)
 : 1, 4, -5, 5, 4, 3.7, 19853*
O=C(NCc1cccnc1)C(=O)NCC1OCCCN1S(=O)(=O)c1ccc(F)cc1 (configuration not stated)
 : 9, -11, -10, 10, -1, 2.3, 4675
CC(=O)Nc1ccc(NC(=O)Nc2ccc3c(c2)N(C)C(=O)CS3)cc1
 : -1, 8, -6, 2, 2, 1.8, 2069
CCc1cc2c(=O)c(-c3nc4ccccc4n3C)c(C)oc2c(CN2CCOCC2)c1O
 : 17, 0, -24, -5, 6, -6.7, 5476
CCOc1ccc(C(C)=NNC(=O)Cn2nc([N+](=O)[O-])cc2C)cc1
 : -2, x, x, -8, -6, 4.5, x
O=C(Nn1cnnc1)c1cc([N+](=O)[O-])cc([N+](=O)[O-])c1
 : 3, -3, -7, 8, 6, 7.4, 9794
c1cncc(CNc2ncnc3sccc23)c1
 : 11, 4, -29, -3, -2, 8.1, 4327
Cn1c(NCCO)nc2c1c(=O)n(Cc1cccc(Cl)c1)c(=O)n2C
 : -3, -4, -11, -6, -9, -4.3, 3683
CCCNC(=O)c1ccc2snnc2c1
 : 1, -8, -13, x, x, 1.2, 2776
O=C(Nc1ccc2nc(-c3ccco3)c(-c3ccco3)nc2c1)NC1CC1
 : x, 2, -46, x, x, x, 3186
O=C1/C(=C/c2ccc(O)cc2)SC(=S)N1CC1CCCO1 (configuration not stated)
 : -2, -14, -2, -1, 5, 1.4, 5148
Cc1c(C)n(CCc2ccccc2)c2ncnc(NCCCO)c12
 : -1, -5, -70, 15, 9, 5.4, 4266

(further entries)
Order of results – Sa ugtP lethal, BJeLR lethal, PrP UTR inh, Mtb hypoxia inh, Mtb hypoxia inh growth, Sa RN4220 lethal, Autofluor counter
O=C(CCCN1C(=O)C2C3C=CC(C3)C2C1=O)N1CCN(c2ccccc2)CC1 (configuration not stated)
 : 6, 9, -20, x, x, -0.8, 2988
COc1ccc(CC(=O)NC(c2ccccc2)c2ccc(C)cc2)c(OC)c1 (configuration not stated)
 : 8, 3, -26, 8, 7, -0.3, 3647
CCN(CC)c1ccc(/C=N/NC(=O)Cc2cccs2)c(O)c1
 : x, 18, 21, x, x, x, 2010
COc1cccc(NC(=O)c2cc([N+](=O)[O-])ccc2NCc2cccnc2)c1
 : 2, 0, -8, 12, -1, 4.2, 2702
O=C(NS(=O)(=O)c1ccccc1)c1ccccc1O
 : 5, 17, -5, x, x, 3.2, 2757
COc1ccccc1C(=O)NNC(=O)c1ccccc1F
 : 5, -3, -85, 14, 0, 2.4, 2115
O=C(CSc1ccccc1Cl)N1CCOCC1
 : 4, 7, -6, 15, -6, 1.4, 2854
O=C(COc1cc2oc(=O)cc(-c3ccccc3)c2cc1Cl)NCC1CCC(C(=O)O)CC1 (configuration not stated)
 : -12, -11, -22, x, x, 11, 4084
COc1cc(C(=O)Nc2ccc3c(c2)OCCO3)ccc1OC(C)C
 : -7, -5, -82, x, x, -2.0, 2217
Cc1cc([N+](=O)[O-])nn1CC(=O)NCCCn1ccnc1
 : 11, 4, -20, -4, 12, -2.1, 2569
COc1cc(/C=C/C(=O)NCc2cccnc2)cc(OC)c1OC
 : 3, -2, -12, 14, 7, 2.6, 4887
NCCCCCc1nnc(SCC(=O)c2ccc(Cl)cc2)o1
 : 3, 4, -13, 7, 8, 5.4, 3495
CCOC(=O)C1=C(COC(=O)c2ccc([N+](=O)[O-])o2)NC(=O)NC1C (configuration not stated)
 : 18, x, -32, 10, 8, 7.2, 2861

Four entries out of the list, ordered by molar mass, rising:
Order of results – Sa ugtP lethal, BJeLR lethal, PrP UTR inh, Mtb hypoxia inh, Mtb hypoxia inh growth, Sa RN4220 lethal, Autofluor counter
CCCNC(=O)c1ccc2snnc2c1
 : 1, -8, -13, x, x, 1.2, 2776
O=C(NCc1ccncc1)C1CCC(=O)N(CCc2ccc(Cl)cc2)C1 (configuration not stated)
 : 6, 3, -11, 1, -4, 6.4, 5099
C=CCN1CC(c2nc3ccccc3n2Cc2cccc3ccccc23)CC1=O (configuration not stated)
 : 1, 4, -5, 5, 4, 3.7, 19853*
CCCCN1C(=O)C2C(C(=O)Nc3cccc(OC)c3)C3C=CC2(O3)C1C(=O)NC1CCCCC1C (configuration not stated)
 : 2, 0, -17, 8, -3, -1.2, x

Screens as filed in PubChem BioAssay.
